# Screening data: PubChem BioAssay, National Center for Advancing Translational Sciences (NCATS)
# TRPV1 PAM = enhances activation of the human vanilloid receptor TRPV1 | potentiation, % at 8.33 µM | AID 540277 | 320,000 tested, 0.02% active | TRPV1-expressing cells, Fluo-8 calcium influx, capsaicin EC20 potentiation; host cell line not named in the record; control for the full effect not named in the record | Q8NER1; active means potentiation above 80%; inconclusive means 30% to 80%; inactive means below 30%; note: 0% is about no effect
# Target sequence (Q8NER1 whole entry, looked up): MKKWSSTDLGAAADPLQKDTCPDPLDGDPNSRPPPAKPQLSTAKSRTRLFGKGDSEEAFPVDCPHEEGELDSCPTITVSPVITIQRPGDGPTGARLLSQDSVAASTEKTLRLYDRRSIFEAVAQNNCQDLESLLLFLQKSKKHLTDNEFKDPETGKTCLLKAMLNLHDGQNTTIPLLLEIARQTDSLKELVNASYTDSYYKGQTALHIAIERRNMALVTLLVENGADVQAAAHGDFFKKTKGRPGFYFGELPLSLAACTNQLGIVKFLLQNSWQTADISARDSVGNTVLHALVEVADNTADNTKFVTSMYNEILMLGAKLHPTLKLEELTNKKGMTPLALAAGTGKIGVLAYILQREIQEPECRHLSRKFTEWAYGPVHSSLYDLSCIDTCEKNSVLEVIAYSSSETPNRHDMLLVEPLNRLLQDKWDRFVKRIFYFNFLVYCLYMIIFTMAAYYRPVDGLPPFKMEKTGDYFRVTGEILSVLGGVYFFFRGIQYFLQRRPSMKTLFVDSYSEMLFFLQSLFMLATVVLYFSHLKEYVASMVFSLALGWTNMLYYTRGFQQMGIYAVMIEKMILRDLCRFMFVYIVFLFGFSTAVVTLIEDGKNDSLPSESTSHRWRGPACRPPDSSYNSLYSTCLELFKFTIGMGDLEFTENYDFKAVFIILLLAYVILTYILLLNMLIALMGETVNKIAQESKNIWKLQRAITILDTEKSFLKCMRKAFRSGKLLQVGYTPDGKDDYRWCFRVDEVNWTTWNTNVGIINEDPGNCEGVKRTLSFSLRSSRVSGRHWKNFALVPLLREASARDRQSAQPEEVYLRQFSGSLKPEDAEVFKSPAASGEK
#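 TRPV1-expressing cells were cultured overnight at 35.5C and loaded with Fluo-8 calcium dye for 40 to 90 min at room temperature. After a 10 s baseline, compound was added and calcium influx was read kinetically for 3 min (ex 480/em 520 nm).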
# D2 potentiator = positive allosteric modulators of human D2 dopamine receptor | 360,000 tested, 0.23% active | DiscoveRx D2 beta-arrestin cells, luminescence, 90 min; 100% = 57 uM dopamine signal | potentiation, % (no concentration beside the values) | AID 624464; active = potentiation of 50% or more; inconclusive = 30% to 50%; inactive = 30% or less;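 note: compound concentration not given in the record; tested on top of an EC20 dose of dopamine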
#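 D2 cells co-treated with compound plus 50 nM dopamine (EC20) for 90 min at 37 deg C to detect potentiation. Beta-arrestin recruitment was read as enzyme-fragment luminescence after 1 h at ambient temperature. Full response was set by 57 uM dopamine.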
# Six1-Eya2 blk = blocks human Six1 binding to Eya2; AlphaScreen GST-Six1/His-Eya2 binding, biochemical; hits give low values; control for the full effect not named in the record; 360,000 tested, 0.56% active; activity change, % (no concentration beside the values); Q15475+O00167; in the data active = activity change below about -65%; inconclusive = about -30% to -65%; inactive = above about -30%; note: % is set by controls: 0 for no effect and ±100 for the full control effect; compound concentration not given in the record
#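 AlphaScreen with GST-Six1 and His-Eya2 (5X mix: 250 nM and 500 nM), glutathione donor and nickel acceptor beads; buffer 50 mM Tris pH 8.0, 300 mM NaCl, 1 mM TCEP; 1 h at 37 C in the dark.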
# CtBP-E1A inh = CtBP/E1A binding inhibition; 340,000 tested, 0.49% active; activity change, % (no concentration beside the values); AlphaScreen GST-E1A/His-CtBP binding, 1536-well; hits give low values; control for the full effect not named in the record; in the data active means activity change below about -65%; inconclusive means about -30% to -65%; inactive means above about -30%; note: % is set by controls: 0 for no effect and ±100 for the full control effect; compound concentration not given in the record
#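 GST-E1A and His-tagged CtBP (125 nM each as 5X stock) were preincubated with pin-transferred compound for 2 h at 37 °C in the dark, then glutathione donor and nickel acceptor beads were added for 1 h before AlphaScreen reading.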
# Sfp PPTase inh = inhibitors of Bacillus subtilis Sfp phosphopantetheinyl transferase | Potency, µM, without a hit: max response, negative = inhibition, actives largely listed as inhibitors | Biochemical Sfp PPTase activity, qHTS | 310,000 tested, 3.5% active | AID 1490; active = well fitted inhibition curve with a large enough effect; inconclusive = small, poorly fitted or top-dose-only effect, or another doubt; inactive = no such curve, though single readings can be large or run the other way;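 note: the enzyme is Sfp with the accession as filed and its product quenches rhodamine fluorescence; potency is the fitted concentration of half-maximal effect; 0% = enzyme reaction without inhibitor and -100% = no enzyme wells; top concentration of the series not given in the record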
#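 Fluorescence-quenching assay with 15 nM Sfp, 5 uM rhodamine-CoA and 12.5 uM BHQ-2-labelled ybbR peptide in pH 7.6 Hepes/MgCl2 buffer. Enzyme was pre-incubated with compound for 15 min at room temperature. Rate was taken from the 30-min fluorescence change (525/598 nm).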
# D2 agonist = activates the human D2 dopamine receptor. AID 624465. DiscoveRx PathHunter D2 beta-arrestin, luminescence, 90 min; 100% = 57 uM dopamine signal. activation, % (concentration not given with the values). P14416. 360,000 tested, 0.084% active; in the data active = activation above about 40%; inconclusive = about 15% to 40%; inactive = below about 15%; note: compound concentration not given in the record; the text of the record calls up to 30% inactive
#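 DiscoveRx PathHunter D2 beta-arrestin cells (2,100/well) attached overnight, then compound-stimulated 90 min at 37 C in HBSS/10 mM HEPES/0.1% Tween-20 buffer; beta-galactosidase complementation read by luminescence after 1 h at ambient temperature. Dopamine 57 uM final (EC100) as control.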
# PINK1 modulator = PINK1 expression modulation | 410,000 tested, 0.2% active | PINK1 immunofluorescence, high-content cytometry, 24 h | AID 624263 | Potency, µM (titrated, usually from 76.6 µM), inactives show at the top dose activation (PINK1 increase), actives largely listed as activators; active = well fitted activation curve with a large enough effect; inconclusive = small, poorly fitted or top-dose-only effect; inactive = flat fitted curve, though single readings scatter; cell line not stated here;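 note: potency is the fitted concentration of half-maximal effect; % of control where 0% means no effect; nearly all actives have a fitted effect of over 65% in size; a mitochondrial uncoupler was the plate control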
#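 Compound titrations (5 concentrations, 24 h) on a stable cell line; DMSO and CCCP controls. Endpoint: fixed-cell PINK1 immunofluorescence with mitochondrial, cell and nuclear markers, scanned by microplate cytometer.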
# Starred values were filed as active, the others as inactive; ? = inconclusive; / = no result given; & = joins results of further samples; [ ] = dose if it differs, or a comment. Compounds were not picked by outcome. Share with any hit: about 3.7%.
# Preview (4 entries):
SMILES,TRPV1 PAM,D2 potentiator,Six1-Eya2 blk,CtBP-E1A inh,Sfp PPTase inh,D2 agonist,PINK1 modulator
CC(NC(=O)CN(c1ccc(F)cc1)S(C)(=O)=O)c1ccccc1 (stereo unspecified),4,-6,-7,-3,10%,-7.6,-0.2%
O=C(O)c1nn2c(c1Br)NC(c1ccccc1)CC2C(F)(F)F (stereo unspecified),-12,21,6,1,19%,-1.7,-0.6%
CCOc1cc(/C=C2\COc3ccccc3C2=O)ccc1OCC(=O)N(C)C,18,-2,-9,-14,-21%,2.6,-2.4%
Cc1ccc(NC(=S)NNC(=O)Cn2nc([N+](=O)[O-])cc2C)cc1,-4,-12,1,0,-6%,-0.1,5.7%[38.3 µM]

# The list itself (from the top)
SMILES,TRPV1 PAM,D2 potentiator,Six1-Eya2 blk,CtBP-E1A inh,Sfp PPTase inh,D2 agonist,PINK1 modulator
CC(NC(=O)CN(c1ccc(F)cc1)S(C)(=O)=O)c1ccccc1 (stereo unspecified),4,-6,-7,-3,10%,-7.6,-0.2%
O=C(O)c1nn2c(c1Br)NC(c1ccccc1)CC2C(F)(F)F (stereo unspecified),-12,21,6,1,19%,-1.7,-0.6%
CCOc1cc(/C=C2\COc3ccccc3C2=O)ccc1OCC(=O)N(C)C,18,-2,-9,-14,-21%,2.6,-2.4%
Cc1ccc(NC(=S)NNC(=O)Cn2nc([N+](=O)[O-])cc2C)cc1,-4,-12,1,0,-6%,-0.1,5.7%[38.3 µM]
Clc1cc(NC2CCCCC2)ncn1,-4,-7,5,16,4%,-1.2,-1.0%
CCN(CC)c1ccc(C(=S)NCc2ccccc2)cc1,6,-11,-9,/,10µM*,-1.7,0.4%
O=C(NCc1cnn(-c2ccc(F)cc2)c1)C1CCC(=O)N(C2CC2)C1 (stereo unspecified),8,1,6,-6,9%,0.8,-1.3%
CCOc1ccc(NC(=O)C2CC(=O)OC2c2ccccc2)cc1 (stereo unspecified),3,-5,3,/,12%,10,1.9%
Cc1ccc(NC(=O)CSc2ncccn2)cc1F,13,-12,9,/,5%,0.0,0.5%
O=Nc1c(O)n(Cc2ccccc2)c2ccccc12,14,-4,0,-21,9%,-3.3,2.9%
COc1nc(-c2ccc(C)cc2)ccc1-c1noc(-c2ccco2)n1,13,-9,5,5,1%,-1.6,3.9%
CCOC(=O)c1[nH]nc(C(=O)c2ccc(Br)cc2)c1O,-5,-12,-2,4,16%,-4.8,1.8%
CCSC1=C(C#N)C(c2ccc(Cl)cc2)C2=C(CCCC2=O)N1 (stereo unspecified),-3,7,9,-8,5%,-0.2,-1.7%
COc1ccc(CN2C=C3C(=O)C(C)(OC(=O)CCc4ccccc4)C(=O)C=C3C=C2c2ccc(C#N)cc2)cc1 (stereo unspecified),8,16,-18,-21,8%&5%,5.3,-0.3%
CC(C)(CO)N=Cc1c(O)[nH]c2ccccc12,0,-7,-6,0,16%,-3.8,-1.0%
COc1cccc(NC(=S)/C(=C(\[O-])c2ccc([N+](=O)[O-])cc2)[n+]2ccccc2)c1,-5,-1,0,0,?,?,0.2%
Cc1ccc(-c2cc(C(=O)n3cnc4ccccc43)c3ccccc3n2)cc1C,-1,-13,1,0,9%,-3.5,4.4%
COc1ccc2sc(N3C(=O)CC(Cc4cccc(C)c4)C3=O)nc2c1 (stereo unspecified),-2,-6,1,12,5%,-0.1,/
Oc1ccc(N2CCN(Cc3ccc(OCCCN4CCCCC4)cc3)CC2)cc1,6,5,-29,-19,?,47*,3.3%
CC(=O)N(Cc1ccco1)C1(C(=O)NC2CCCC2)CCCCC1,-14,-6,2,1,16%,-4.6,-1.8%
Cc1ccsc1C(=O)Nc1nc2ccccc2[nH]1,12,-7,-4,2,17%,-2.8,2.9%
CCCCn1c(O)c(/C=C2\C=NN=C2c2ccccc2)sc1=S,-6,-6,-16,9,-3%,-3.0,-3.9%
COc1ccc(CCN(Cc2cc3ccc(C)cc3n3nnnc23)C(C)=O)cc1OC,-5,-3,-4,0,9%,-1.5,2.2%
COc1ccc(C(=O)Nc2sc3c(c2C#N)CCN(C(C)=O)C3)cc1,26,1,2,1,-11%,-2.6,10%
CC/C(=N/O)C(=O)c1ccc(Br)cc1,6,-5,-2,10,14%,-3.4,4.9%
COc1ccc(S(=O)(=O)N(C)CC(=O)Nc2ccccc2C(F)(F)F)cc1,-4,-1,0,-9,2%,-1.4,8.2%[38.3 µM]
Cn1ncc(S(=O)(=O)Cc2ccccc2)c(Cl)c1=O,/,-6,2,7,6.3µM*,-1.8,0.6%
CCOc1ccccc1N(CC(=O)Nc1ccccc1C(=O)OC)S(C)(=O)=O,-4,-1,6,-3,7%,0.2,3.2%
CO[C@H]1CC[C@@]2(C)[C@@H](CC[C@@H]3[C@@H]2CC[C@@]2(C)[C@H]3C[C@H](C(=O)N[C@@H](CCCN=C(N)N)C(=O)NCC(=O)N[C@@H](CC(=O)O)C(N)=O)O[C@]23CCCO3)C1,/,-5,-19,-9,/,-3.7,-0.6%
COc1ccc(CC(=O)N2CCN(c3ccccc3OC)CC2)cc1,-16,-1,8,-23,25%,-2.9,2.6%
O=C(Oc1ccc(/C=N/Nc2nc(N3CCCCC3)nc(N3CCCCC3)n2)cc1)c1ccco1,3,-3,2,/,-5%,-3.6,1.9%
CCC(=O)Nc1ccc(C(=O)COC(=O)C(CCSC)NC(=O)COc2ccccc2)cc1 (stereo unspecified),-2,-10,0,-3,/,-0.3,0.7%
CC(C)OC(=O)N(C)C[C@@H]1OCc2ccccc2-c2c(n(C)c3ccccc23)C(=O)N([C@@H](C)CO)C[C@H]1C,/,1,7,-2,/,-9.2,-0.4%
CC(=O)c1cccc(NC(=O)/C(=C\c2ccco2)NC(=O)c2ccco2)c1,-6,-13,-1,-2,11%,2.1,-1.0%
CCN1CCN(C(C)CCc2ccccc2)CC1 (stereo unspecified),28,-9,-2,9,3%,4.3,0.7%
O=C(CCNS(=O)(=O)c1ccccc1C(F)(F)F)N1CCN(S(=O)(=O)c2cccc(Cl)c2)CC1,-3,-2,8,3,/,-1.2,-0.8%
Cc1cc(C(=O)CN2C(=O)NC(CC(C)C)C2=O)c(C)n1C1CC1 (stereo unspecified),/,2,-2,-11,/,-2.6,-0.6%
CCOC(=O)c1cnc2nc(SC)nn2c1N,-3,-2,8,-3,10%,-3.8,0.6%
O=C(CCCOc1cccc(Br)c1)NC1CCC(O)CC1 (stereo unspecified),3,-13,0,10,12%,-6.9,1.2%
COC(=O)C1=C(C)N(CCc2ccc(OC)c(OC)c2)C(=O)/C1=C\N(C)C,2,-8,-2,-1,-23%,-4.7,-0.3%
CCCCCC/C=N/Nc1nnc(Cc2ccc(OC)c(OC)c2)c(=O)[nH]1,12,-2,-74*,?,9%,-6.2,?
CCN(C(=O)CN1C(=O)NC2(CCCc3ccccc32)C1=O)c1ccc(F)cc1 (stereo unspecified),-6,-1,10,2,/,-0.6,1.3%
O=C(Nc1c[nH]c(=O)[nH]c1=O)c1ccc([N+](=O)[O-])cc1,-2,6,8,/,1%,2.6,-1.7%
CCOC(=O)c1ccc(Nc2nc(C)cc(=O)[nH]2)cc1,8,-11,1,1,-1%,-1.7,/
Cn1c(CN2CCCCC2)nc2cc(NC(=O)c3ccc(F)cc3)ccc21,-9,-12,0,39,5%,-2.2,?
CCN(C(=O)CSc1nnc2ccccn12)C1CCS(=O)(=O)C1 (stereo unspecified),3,-2,-16,-21,-5%,-4.4,-2.6%
O=C(O)C(Cc1ccccc1)N1C(=O)C=CC1=O (stereo unspecified),/,-2,-6,0,/,-1.4,0.5%
CCC(c1nnnn1-c1ccc2c(c1)OCCO2)N1CCN(c2cc(C)ccc2C)CC1 (stereo unspecified),/,/,-17,-2,/,/,3.3%
CCc1nn(-c2cc(Cl)ccc2OC)c2c1C(=O)CCC2,-15,3,-2,-4,6%,0.4,2.0%
CC(=O)Oc1c(-c2ccco2)oc2ccccc2c1=O,-4,-23,-18,-22,15%,-3.0,-0.6%
CCOC(=O)N1CCC(NC(=O)CCC(=O)c2ccccc2)CC1,-3,4,-6,4,7%,-1.1,-2.2%
CCn1nc(NS(=O)(=O)c2ccc(NC(C)=O)cc2)c2cc3ccc(C)cc3nc21,?,-9,?,?,9%,-17,1.8%
CCc1c(C(=O)OCc2ccccc2)[nH]c(C)c1C,-2,-13,-10,0,3%,-0.3,7.4%
CC(C)CC(=O)c1c[nH]c(C(=O)NCCCn2ccnc2)c1,-9,4,-1,3,-10%,-0.9,-0.5%
Cc1cccn2c(=O)c3cc(C(=O)NC4CCCC4)c(=N)n(CC4CCCO4)c3nc12 (stereo unspecified),-1,-10,-4,-21,9%,-1.6,3.4%
CC(=O)N=C(N)Sc1nc2ccccc2[nH]1,-8,-6,3,-1,16%,-0.7,0.2%
COc1ccc(C2/C=C\CN(C(=O)c3ccc(C)cc3)CC(=O)N2Cc2ccc(F)cc2)cc1 (stereo unspecified),-23,-9,-6,0,13%&-8%,-2.8,2.8%
Cc1ccc(NC(=O)CSCC(=O)N(C)CC(=O)Nc2cccc3ccccc23)cc1,7,-4,2,-21,/,1.6,-2.1%
c1ccc(-c2nnc3ccc(N4CCC5(CC4)OCCO5)nn23)cc1,-17,-1,-5,-7,7%,0.0,4.8%[38.3 µM]
COc1ccc(Nc2c(-c3ccc(F)cc3)nc3nc(C)cc(C)n23)cc1,/,/,-12,-2,/,/,0.0%
# New compounds follow.
SMILES,TRPV1 PAM,D2 potentiator,Six1-Eya2 blk,CtBP-E1A inh,Sfp PPTase inh,D2 agonist,PINK1 modulator
COc1ccc(Cl)cc1C(=O)NCc1ccco1,4,0,-2,6,0%,-3.2,1.6%
O=C(NC1=NCCS1)c1cccc(S(=O)(=O)N2CCOCC2)c1,-1,-4,1,2,/,0.3,-1.0%
COc1cccc(OC)c1C(=O)Nc1cc(C)on1,10,-1,8,-27,5%,-3.1,2.5%
Cc1[nH]c(C)c(S(=O)(=O)NCc2ccco2)c1C(=O)N1CCCCC1,-11,-11,4,1,9%,-3.4,1.0%
OC1(Cc2ccn[nH]2)CCCCC1,12,5,-10,-9,20%,-3.4,-0.5%
CN(C)C=Nc1ncc2c([nH]c3ccccc32)c1C#N,11,-17,2,6,-11%,3.0,-2.9%
CC(CC(=O)Nc1ccc(Cl)c(S(=O)(=O)N2CCOCC2)c1)c1ccccc1 (stereo unspecified),1,2,0,4,/,3.0,1.4%
